KCNQ2 enhance = KCNQ2 (rat) channel potentiation | O88943 | CHO-K1 KCNQ2, FluxOR thallium flux fluorescence; stronger effect = higher value | B-score at 10 µM | actives 0.54% (n = 310,000) | AID 2239;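 active = fluorescence ratio B-score at least 3 SD of library B-scores, with initial fluorescence B-score within 3 SD, cut at about 5.3 in these data; same plate scores as AID 2156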;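 note: B-score of peak minus minimum over baseline fluorescence ratio after K+ and Tl+ stimulus; positive B-score means potentiation of KCNQ2 with more thallium influx and brighter signal; only the inactives scoring about 0 or higher are listed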
Target sequence (O88943 whole entry, looked up): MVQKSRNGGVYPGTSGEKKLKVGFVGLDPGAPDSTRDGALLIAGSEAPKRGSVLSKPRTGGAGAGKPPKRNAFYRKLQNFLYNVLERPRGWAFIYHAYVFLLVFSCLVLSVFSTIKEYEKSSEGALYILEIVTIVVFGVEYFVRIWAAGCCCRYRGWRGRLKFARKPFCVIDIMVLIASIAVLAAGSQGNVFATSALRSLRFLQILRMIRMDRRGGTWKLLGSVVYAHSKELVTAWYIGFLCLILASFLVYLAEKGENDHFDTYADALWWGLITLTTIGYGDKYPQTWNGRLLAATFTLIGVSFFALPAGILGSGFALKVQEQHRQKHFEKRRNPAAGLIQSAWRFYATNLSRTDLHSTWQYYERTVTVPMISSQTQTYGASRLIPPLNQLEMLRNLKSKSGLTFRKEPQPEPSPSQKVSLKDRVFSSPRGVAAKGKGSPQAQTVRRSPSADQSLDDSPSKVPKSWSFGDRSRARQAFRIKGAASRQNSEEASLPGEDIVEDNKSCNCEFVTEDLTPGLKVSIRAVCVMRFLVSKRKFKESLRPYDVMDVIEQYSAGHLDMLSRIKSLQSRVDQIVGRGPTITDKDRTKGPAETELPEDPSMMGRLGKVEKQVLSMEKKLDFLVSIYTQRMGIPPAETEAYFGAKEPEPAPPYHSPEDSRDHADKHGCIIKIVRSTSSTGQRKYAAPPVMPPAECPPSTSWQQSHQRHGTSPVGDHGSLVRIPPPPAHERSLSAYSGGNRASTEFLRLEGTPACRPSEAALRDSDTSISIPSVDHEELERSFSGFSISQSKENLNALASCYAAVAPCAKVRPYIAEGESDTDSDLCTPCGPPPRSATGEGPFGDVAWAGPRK
KCNQ2 enhance baseline = also measured in KCNQ2 enhance; calls as there; B-score; compound at 10 µM; measured here: initial fluorescence intensity artifact check;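 brightness before thallium and not channel activity; 0 = typical well and far values either way flag optical interference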
The depositor's hits bear a star; x = no result given. Not all compounds are listed; rates above refer to the full screens.

molecule	KCNQ2 enhance	KCNQ2 enhance baseline
CC(C)C1N(C(=O)CN2CCCC2)CCN1S(=O)(=O)c1ccccc1 (centres undefined)	0.6	0.4
CCOC(=O)c1nnc(-c2ccccc2)nc1NC	0.09	-0.36
Fc1ccccc1/C=N/n1cc(-c2ccccc2)[nH]c1=S	1.8	1.4
CCOC(=O)/C=c1\s/c(=C\c2ccc(C#N)cc2)c(=O)n1CC(=O)Nc1cccc(C)c1C	0.68	-0.8
CCn1nc(NC(=O)C2CCCO2)c2cc3cc(C)ccc3nc21 (centres undefined)	0.13	-1.2
Nc1ncncc1-c1ccc2ccccc2c1	1.6	-0.26
CC(=O)N1CCN(S(=O)(=O)c2ccc(F)c(Cl)c2)CC1	0.06	0.02
CC(=O)N/C(=N/c1nc(C)cc(C)n1)Nc1cccc(C)c1C	0.62	1.4
CC(C)(C)c1ccc(CN2C(=O)c3ccccc3S2(=O)=O)cc1	0.99	0.94
CCOc1ccc(Oc2ccc(Cl)cc2NC(=O)CCNC(C)=O)cc1	0.16	0.58

Look-ups from above.
CC(C)(C)c1ccc(CN2C(=O)c3ccccc3S2(=O)=O)cc1 in KCNQ2 enhance reads 0.99
Nc1ncncc1-c1ccc2ccccc2c1 in KCNQ2 enhance baseline reads -0.26
CCOc1ccc(Oc2ccc(Cl)cc2NC(=O)CCNC(C)=O)cc1 in KCNQ2 enhance baseline reads 0.58
CC(=O)N1CCN(S(=O)(=O)c2ccc(F)c(Cl)c2)CC1 in KCNQ2 enhance baseline reads 0.02
CC(C)C1N(C(=O)CN2CCCC2)CCN1S(=O)(=O)c1ccccc1 (centres undefined) in KCNQ2 enhance reads 0.6

(more compounds)
molecule	KCNQ2 enhance	KCNQ2 enhance baseline
CCn1nc(C)c(CN2CCN(Cc3ccc(OC)c(C)c3C)C(CCO)C2)c1C (centres undefined)	0.49	2.3
CC(C)N1C(=O)CCC1C(=O)NC1CCCC1 (centres undefined)	0.31	0.01
COc1ccc(CC(=O)NCC2CCCN(Cc3ccccc3OC)C2)cc1 (centres undefined)	1.4	-1.9
c1ccc2nc(N3CCOCC3)cnc2c1	1.7	-0.01
N=c1c2c(n(Cc3ccc(F)cc3)c3c1CCC3)CCC2	1.2	1.7
CCC(=O)Nc1cc(SCCO)cc([N+](=O)[O-])c1	0.01	-2.4
CCNC(=O)/C(C#N)=C/c1c(N2CCOCC2)nc2ccccn2c1=O	0.36	-0.75
CN1CCN(c2nc(-c3ccccc3)nc3c2oc2ccccc23)CC1	0.16	2
CC1=C(C)CC(C(=O)NCc2cccc(Cl)c2)C(C(=O)O)C1 (centres undefined)	0.07	-1.3
C=C(C)C(=O)N1CC2(CC(c3cccc(NC(=O)/C=C\C=C/C)c3)=NO2)C[C@H]1C(N)=O (some centres undefined)	1.5	-1.6

(cont.)
molecule	KCNQ2 enhance	KCNQ2 enhance baseline
Cc1ccc(CC(=O)Nc2ccc(F)c([N+](=O)[O-])c2)cc1C	3	0.59
O=C1COc2ccc(S(=O)(=O)N3CCCCCC3)cc2N1	0.7	1.1
COC(OC)c1nc(SCC(=O)Nc2cccc(Cl)c2)ncc1C(=O)O	0.37	-0.57
CSCCC(NC(=O)OCc1ccccc1)C(=O)O (centres undefined)	0.06	1.4
COC(=O)C1C(O)=C(C(C)=N)C(=O)CC1(C)C (centres undefined)	1.5	-1.9
O=C(Nc1nc(-c2ccc(S(=O)(=O)N3CCOCC3)cc2)cs1)c1ccccc1	1	-0.04
CCOC(=O)N1CCN(C(=O)c2ccc(N(C)S(=O)(=O)c3ccc(C)cc3)cc2)CC1	1.6	-0.96
O=C(Nc1nc(-c2ccccn2)cs1)c1ccc(S(=O)(=O)N2CCCCC2)cc1	1.6	0.11
Cn1c(N)c(C(=O)COC(=O)C2CCCC2)c(=O)n(C)c1=O	0.63	-0.81
COc1ccc(CCC(=O)Nc2nc3c(s2)CN(C)CC3)cc1OC	0.09	1.4

Record cards (already shown).
CSCCC(NC(=O)OCc1ccccc1)C(=O)O (centres undefined) reads KCNQ2 enhance = 0.06; KCNQ2 enhance baseline = 1.4
Cn1c(N)c(C(=O)COC(=O)C2CCCC2)c(=O)n(C)c1=O reads KCNQ2 enhance = 0.63; KCNQ2 enhance baseline = -0.81

Next entries follow.
molecule	KCNQ2 enhance	KCNQ2 enhance baseline
O=C(COC(=O)CCc1nc2ccccc2n1-c1ccccc1)Nc1cccc(Cl)c1	1.1	-1.9
CCOC(=O)C1CCN(C(=O)COc2cccc3ccccc23)CC1	0.36	0.18
O=c1[nH]c2ccc(Cl)cc2c(O)c1Cc1ccccc1	0.44	0.04
CCNS(=O)(=O)c1ccc(-c2ccc(-n3cnnn3)cc2)cc1	0.65	0.89
COc1ccccc1C(=O)NNC(=O)c1ccc(Cl)cc1	0.04	-0.44
Cc1ccccc1OCc1nnc(SCC(=O)Nc2ccc(N3CCOCC3)cc2)n1C	0.01	-1.1
CC(C)CCN1CCN(Cc2ccoc2)CC1CCO (centres undefined)	0.4	1.3
Cc1ccc(N2C(=O)CSC2c2cccnc2)cc1F (centres undefined)	0.31	0.14
Cc1sc2ncn(CC(=O)Nc3cccc(S(N)(=O)=O)c3)c(=O)c2c1-c1ccccc1	0.46	-0.04
O=C(C1COc2ccccc2O1)N1CCOCC1 (centres undefined)	0.46	-1.3

Following part:
molecule	KCNQ2 enhance	KCNQ2 enhance baseline
COc1ccc(N2CCN(C3CCCN(C(=O)C4=C(C)OCCO4)C3)CC2)cc1 (centres undefined)	1.3	-0.24
COCCNC(=O)Cn1nc(-c2ccccc2OC)ccc1=O	0.24	0.56
CCn1cc(C(=O)OCc2ccc(F)cc2)c(=O)c2ccc(C)nc21	1.9	0.16
CCCN(C(=O)c1ccc(OCC(C)C)cc1)c1c(N)n(Cc2ccccc2)c(=O)[nH]c1=O	1.8	0.72
COc1cc(OC)cc(C(=O)N[C@H](C(=O)OCC(N)=O)C(C)C)c1	0.01	-0.97
COc1ccc(C(=O)Nc2cccc3c2C(=O)NC3=O)cc1S(=O)(=O)N1CCOCC1	1.4	0.13
CNc1nc(-c2ccccc2)cc(C)c1S(C)(=O)=O	1	0.82
CCn1c(SCC(=O)NCc2cccs2)nc2c1c(=O)n(C)c(=O)n2C	0.34	-0.5
COc1cccc(CNC(=O)c2cccc(NC3=NC4CS(=O)(=O)CC4S3)c2)c1 (centres undefined)	0.15	-0.04
N=C1C(c2ccccc2)=C(O)CN1CCCO	0.25	-0.99

The results go on.
molecule	KCNQ2 enhance	KCNQ2 enhance baseline
CCOc1ccc(C2=Nn3c(nnc3-c3ccccn3)SC2)cc1	0.94	-0.84
CCN(CC)CCN1C(=O)Cn2c(C)c(C)c3cccc1c32	1.1	x
CCCCn1c(N)c(N(CC(C)C)C(=O)c2cccc(S(=O)(=O)N3CCCCCC3)c2)c(=O)[nH]c1=O	0.78	0.36
CC(Sc1n[nH]c(N)n1)C(=O)Nc1ccc(Cl)cn1 (centres undefined)	1.9	0.27
CCOc1ccc(S(=O)(=O)N2CCOCC2)cc1NC(=O)c1ccccc1F	0.25	2.3
CC(C)CN(C(=O)CSc1nncn1-c1ccccc1)c1c(N)n(CC(C)C)c(=O)[nH]c1=O	0.34	1.1
Cn1c(C(O)c2ccccc2)nc(Cl)c1Cl (centres undefined)	1.4	0.42
CCOC(=O)N1CCN(C(=O)CCNS(=O)(=O)c2ccc3c(c2)c(=O)n(C)c(=O)n3C)CC1	0.03	0.15
O=C(O)c1ccccc1C(=O)N(c1ccccc1)c1ccccc1	0.9	0.31
COc1ccc(/C=C/C(=O)N2CCN(c3ccccn3)CC2)c(OC)c1OC	0.57	-0.9

Other structures
molecule	KCNQ2 enhance	KCNQ2 enhance baseline
Cc1occc1-c1nnc(SCC(=O)Nc2nc3ccccc3s2)o1	0.15	-0.08
CCCn1c(-c2ccccc2)nc2c(=O)n(C)c(=O)[nH]c21	0.43	0.74
CCOC(=O)Cc1csc(N/N=C/c2ccccc2)n1	0.06	1
O=C(O)CCC(C(=O)O)n1c(O)c(C2=c3ccccc3=NC2=O)sc1=S (centres undefined)	1.4	0.2
c1ccc(OCCSc2nc3ccccc3[nH]2)cc1	0.11	-1.5
CCC(C)n1c(SC(C)C#N)nc2ccccc2c1=O (centres undefined)	1.6	-1.1
O=C(Nc1ccc(-c2cn3ccccc3n2)cc1)c1cccs1	1.7	-1.9
CC(=O)Nc1ccc(S(=O)(=O)NCCSCc2cccc(Cl)c2)cc1	1.3	-1.4
CCOc1ccc(NC(C)C(=O)N/N=C/c2ccc([N+](=O)[O-])cc2)cc1 (centres undefined)	0.69	0.53
O=C(CN(c1ccccn1)S(=O)(=O)c1ccccc1)N/N=C/c1cccc([N+](=O)[O-])c1	0.21	0.06

(more compounds)
molecule	KCNQ2 enhance	KCNQ2 enhance baseline
NC1=NCC(O)=C1c1nc2ccccc2[nH]1	1	0.39
CCc1cccc(CC)c1NC(=O)CNCc1cccs1	0.1	3.7
COCCn1c(N)c(N(Cc2ccccc2)C(=O)Cc2c(Cl)cccc2Cl)c(=O)[nH]c1=O	0.44	-1.1
Cc1cc([N+](=O)[O-])c(-c2ccc(/C=N/n3cnnc3)o2)cc1Cl	1.3	-0.04
Cc1cc(NC(=O)CCC(=O)N(Cc2cccs2)C(C)(C)C(=O)NC2CCCCC2)no1	0.01	2.1
Cn1ncc2c(NNC(=O)c3ccccc3Cl)ncnc21	0.01	0.22
CCn1ncc([N+](=O)[O-])c1C(=O)Nc1c(C)cccc1C	14*	0.04*
O=C(CNS(=O)(=O)c1ccccc1)NCC(=O)OCc1ccc(C(=O)c2ccccc2)cc1	0.14	-1.2
CCOC(=O)c1c(C)[nH]c(C(=O)COC(=O)c2ccc(O)cc2O)c1C	1.6	0.5
COc1cc(CCCN2C(=O)C(=O)NC[C@@H]2CC2CCCCC2)cc(OC)c1OC	0.37	-0.05

The list goes on:
molecule	KCNQ2 enhance	KCNQ2 enhance baseline
O=C(Nc1ccc(F)cc1)Nc1ccc(N2CCOCC2)c2nonc12	0.51	0.01
CNC(=S)/N=C(\Nc1ccc(C)cc1)c1ccccc1	1.8	0.1
O=c1nc(/C=C/c2ccc(O)c(O)c2)oc2ccccc12	0.32	0.21
O=C(CCc1nc(-c2ccc(Cl)cc2)no1)NC1CCCCC1	0.17	0.15
O=C(NCC1CCCO1)C1CC(=O)N(c2cccc(Cl)c2)C1 (centres undefined)	0.61	-0.44
COc1ccc(CCNC(=O)C(NS(=O)(=O)c2ccc3c(c2)CCN3C(C)=O)C(C)C)cc1OC (centres undefined)	0.63	1.4
COC(=O)c1ccc(S(=O)(=O)NCc2ccccn2)n1C	0.01	0.23
COc1ccc(NC(=O)CSc2ncc(-c3ccc(F)cc3)n2Cc2ccco2)cc1	0.13	-0.72
Fc1ccccc1Cn1nnc2c(NCCc3ccccn3)ncnc21	0.32	-0.23
CC(C)=CC(=O)Nc1nc2ccc([N+](=O)[O-])cc2s1	1.2	-0.29

(cont.)
molecule	KCNQ2 enhance	KCNQ2 enhance baseline
O=C(O)Cn1cc(/C=C/[N+](=O)[O-])c2ccccc21	0.01	0.24
O=C(NC1CCN(C(=S)NCc2ccco2)CC1)C12CC3CC(CC(C3)C1)C2	0.04	0.54
Cc1nc2nc(CSc3ccc(Cl)cc3)cc(=O)n2[nH]1	0.47	1.1
Cc1cccc(OCC(=O)Nc2nc3ccc([N+](=O)[O-])cc3s2)c1C	0.61	0.14
COCCOC(=O)c1c(C)oc2ccc(NS(=O)(=O)c3ccc(C)cc3)cc12	1.2	-0.51
CCOC(=O)C(Cc1ccccc1)C(=O)Nc1ccc(NC(=O)C(Cc2ccccc2)C(=O)OCC)cc1 (centres undefined)	0.27	0.52
Cc1sc2ncnc(N(C)Cc3ccco3)c2c1C	0.21	1.3
O=c1oc2ccccc2cc1-c1nc2ccccc2o1	0.49	-0.21
Cc1ccc(C2CC(=O)Nc3cc4c(cc32)OCO4)o1 (centres undefined)	0.07	0.48
CCOC(=O)COc1ccc(C(=O)NC2CCCCC2)cc1	0.31	-0.75

Additional structures:
molecule	KCNQ2 enhance	KCNQ2 enhance baseline
CC(C)N1CCN(Cc2ccc(Sc3nncn3C)o2)CC1CCO (centres undefined)	1.7	0.29
O=C1NC2(CCCC2)N=C1c1ccc(Cl)cc1	1.2	2.4
COCCN(C(=O)CSc1nnc(-c2ccccc2F)n1C)c1c(N)n(Cc2ccccc2)c(=O)[nH]c1=O	1.3	0.98
COc1cc2c(C(=O)Nc3ccccc3F)cn(C)c(=O)c2cc1OC	1.7	-0.17
CS(=O)(=O)N1CC(C(=O)NC2CC2)Oc2ccc(Cl)cc21 (centres undefined)	1.1	-1.2
CN(C)CCCN(C(=O)c1ccc(S(=O)(=O)N2CCCC2)cc1)c1nc2c(F)cc(F)cc2s1	1.6	-1.6
CCc1n[nH]c(=S)n1/N=C/c1ccccc1OCc1ccc(Cl)cc1	0.01	0.06
CCS(=O)(=O)N1CCC(C(=O)NC2CCCCC2)CC1	1.4	0.12
CC(=O)c1cc(C)ccc1OC(=O)CN1C(=O)c2ccccc2C1=O	1.6	0.26
Cc1c2cnn(CC(=O)Nc3c(F)c(F)cc(F)c3F)c(=O)c2c(C)n1Cc1ccc(F)cc1	1.5	1.1

The list goes on.
molecule	KCNQ2 enhance	KCNQ2 enhance baseline
Cc1ccccc1CN1CCN(Cc2cc(=O)c3ccccc3[nH]2)CC1CCO (centres undefined)	1.4	-0.65
CCc1nnc(NC(=O)CSc2nc(-c3ccccc3)nc3ccccc23)s1	3.2	2.1
Cc1cc(Br)ccc1NC(=O)CSc1nnc(CN2CCOCC2)n1C	1.1	0.67
NC(=O)NC(=O)CSc1nc(C2CCCCC2)n(-c2ccccc2)n1	0.38	0.24

Source: PubChem
